Source: PubChem BioAssay (ICCB-Longwood Screening Facility, Harvard Medical School)
Anaer choline gr = blocks anaerobic gram-negative growth on choline; actives 0.2% (n = 55,000); calls only; AID 1963822; Gram-negative bacterium anaerobic choline minimal medium, absorbance growth; active compounds read low; many inactives read as strong as hits in the columns shown;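 active means growth z-score on choline under -2 at 7 or 20 h with little or no fall on glycerol, limits in tiers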;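 further: stock transfer was 300 nL into about 50 µL; the organism is E. coli; final concentration not given here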
Anaer choline gr early = recorded beside Anaer choline gr, whose call it bears; z-score; measured here: choline growth z-score, timepoint 1;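 score of optical density at 7 h as mean of two plates; lower means less growth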
The depositor's hits bear a star; i = inactive; + = active, no number; & = joins results of further samples; ! = repeats disagree. An excerpt; rates above refer to the full screens.

Value order: Anaer choline gr early	Anaer choline gr
- CC(C)c1nc(-c2ccc(C(=O)N3CCN(c4nc5cccnc5o4)CC3)cc2)no1
    -0.61	i
- CCc1ccccc1NC(=O)C1=CC(c2ccc(C)cc2)=NS(=O)(=O)N1C
    1.54	i
- Cc1nc(-c2ccc(F)cc2)sc1CCNS(=O)(=O)c1ccc(Br)cc1
    -0.65	i
- COc1ccc(NC(=O)c2ccc(Oc3nccnc3Sc3ccc(Cl)cc3)cc2)cc1OC
    -1.36	i
- COc1cccc(CNC(=O)CC2=NS(=O)(=O)c3ccccc3N2)c1
    -1.54	i
- O=C(Nc1ccc(Br)cc1F)N1CCN(c2cc(-c3cccc(F)c3)ncn2)CC1
    -0.12	i
- O=S(=O)(c1cc(-c2noc(C3CC3)n2)cs1)N1CCN(c2ccccc2F)CC1
    0.74	i
- COc1ccc(-c2nc3nc(CN4CCOCC4)cc(=O)n3[nH]2)cc1
    -1.18	i
- CC(C)C12CN3CC(C(C)C)(CN(C1)C3c1cccc(Br)c1)C2=O (stereo unspecified)
    0.54	i
- CCC1Oc2ccc(Cl)cc2N(CC(=O)Nc2ccc3c(c2)C(=O)N(C)C2=NCCN23)C1=O (stereo unspecified)
    -0.31	i
- Cc1cc2n(n1)CCC(=O)N2CCCC(=O)NC(C)c1ccccc1 (stereo unspecified)
    -1.24	i
- CS(=O)(=O)N1CCCc2cc(C(=O)N3CCN(c4ccccc4)CC3)ccc21
    0.85	i
- CCC(=O)c1sc(Nc2ccccc2)nc1N
    -2.59	i
- COC(=O)c1scc(-c2ccccc2)c1S(=O)(=O)Nc1ccccc1
    0.63	i
- CCn1cc(-c2nc(-c3ccc(C)cc3)no2)c(=O)c2cc(F)c(N3CCOCC3)cc21
    -6.34	i
- CC1Oc2ccc(-c3csc(NC(=O)c4cccnc4)n3)cc2N(C)C1=O (stereo unspecified)
    -0.22	i
- O=C1Nc2ccccc2C12CCN(S(=O)(=O)c1ccc(F)c(F)c1)C2 (stereo unspecified)
    -1.75	i
- Cn1c(NC(=O)c2ccccc2Cl)cc(=O)n(C)c1=O
    0.4	i
- COc1ccc(N2CCN(CC(=O)Nc3nc(-c4ccccc4)cs3)CC2)cc1
    -0.34	i
- Cn1c(=O)c2c(nc(Sc3ccccc3NC(=O)Nc3ccc(F)cc3)n2C)n(C)c1=O
    -0.57	i
- Cc1nc(-n2[nH]c(C)c(CCC(=O)Nc3ccc(Cl)cc3)c2=O)sc1C
    0.86	i
- CC(=O)N1N=C(c2ccccc2O)CC1c1cn(-c2ccccc2)nc1-c1ccccc1 (stereo unspecified)
    -0.39	i
- CCC(=O)N1CCc2cc(S(=O)(=O)NCCC(=O)Nc3cc(C)ccc3OC)ccc21
    0.1	i
- O=c1cc(-c2ccccc2)nc(NCc2cccnc2)[nH]1
    0.33	i
- COc1cc(C(O)CO)ccc1OS(=O)(=O)O (stereo unspecified)
    -0.35	i
- CCCN(CCC)C(=O)c1cc(NC(C)=O)cnc1N1CCNCC1
    -1.62	i
- Clc1cccc(CSc2nc3ncccc3[nH]2)c1
    -0.77	i
- Cc1ccc(-c2cc(NC(=O)C3CC3)on2)s1
    1.23	i
- Cc1ccc(-c2n[nH]c(CCNC(=O)c3ccc(S(=O)(=O)N4CCOCC4)cc3)n2)cc1
    0.21	i
- O=C(Cc1ccc(Br)cc1)N1CCC(c2nc(-c3ccc(F)cc3)no2)CC1
    -0.52	i
- Cc1ccc2c(c1)c(=O)c(S(=O)(=O)c1ccc(C)c(C)c1)cn2CC(=O)Nc1ccc(F)cc1
    -0.83	i
- CN1CCN(S(=O)(=O)c2cc(-c3nnc(C4CCC4)o3)co2)CC1
    0.96	i
- Cc1cc(Cl)ccc1-n1ncc2c(N(C)C)ncnc21
    0.95	i
- O=C(C1CC(=O)N(C2CCCCC2)C1)N1CCCCCC1 (stereo unspecified)
    1.17	i
- CCc1onc(C)c1C1CCCN1C(=O)NCCCOC (stereo unspecified)
    -0.06	i
- COc1ccc(-c2cnn3c(C(F)(F)F)cc(C)nc23)cc1OC
    1.64	i
- Cc1onc(-c2ccc(F)cc2)c1C(=O)NCc1ccc2c(c1)OCO2
    0.58	i
- Cc1ccc(-n2nnc(C(=O)OCc3ccc(F)cc3)c2C)cc1Cl
    0.8	i
- CCOc1ccc(C(=O)NCCc2sc3nc(-c4ccc(C)cc4)nn3c2C)cc1
    0.74	i
- CCCn1c(C)ccc(-c2noc(CCCC(=O)NC(C)c3ccccc3)n2)c1=O (stereo unspecified)
    1.01	i
- CCc1ccc(-c2nc(-c3cc(C(=O)O)[nH]n3)c(C)s2)cc1
    1.51	i
- O=C(C1CC(c2c(F)cccc2Cl)=NO1)N1CCCCC1 (stereo unspecified)
    0.98	i
- CNC(=O)CCc1nc2ccccc2n(CC(=O)NCc2ccc(C)cc2)c1=O
    0.72	i
- CCOC(=O)c1cnn(-c2ccc(C(=O)N3CCN(c4ccccc4)CC3)cc2)c1N
    -0.13	i
- Cc1nc(-c2cc(S(=O)(=O)N3CCCCC3C)c(C)s2)sc1C (stereo unspecified)
    0.76	i
- CCOC(=O)CC1(NC(=O)N2Cc3c(sc4c3CCCC4)-n3cccc3C2CC)CCCCC1 (stereo unspecified)
    0.84	i
- Cc1cc(Cl)ccc1NC(=O)CCCn1nc(C)c2c(C)n(-c3ccccc3)nc2c1=O
    1.1	i
- CCc1cc(=O)n2c(nc3ccccc32)[nH]1
    -1.65	i
- Cc1cc(N2CCN(C)CC2)n2nc(C(F)(F)F)c(-c3ccccc3Cl)c2n1
    -1.33	i
- CCCCc1nc2c3c(C)c(C)n(-c4ccc(C)cc4)c3ncn2n1
    2.2	i
- O=C(NC1CCCCC1)C1(c2ccc(NS(=O)(=O)c3ccc4c(c3)CCCC4)cc2)CC1
    0.06	i
- Cc1ccc(C)c(NC(=O)Nc2ccc(Nc3cc(N(C)C)nc(C)n3)cc2)c1
    0.12	i
- COc1cc(OC)c([C@H]2N(c3ccc(Cl)cc3)C(=O)[C@@H]3CCCN32)cc1OC
    -0.52	i
- CCOC(=O)c1ccccc1NC(=O)Cn1c(=O)n(Cc2ccc(F)cc2)c(=O)c2sc3ccccc3c21
    -1.78	i
- O=C(Nc1cnn(-c2ncc(N3CCSCC3)cn2)c1)C1CCOC1 (stereo unspecified)
    0.86	i
- CCOC(=O)c1nc(NCCc2c[nH]c3ccc(OC)cc23)c2c(C)noc2n1
    -0.4	i
- CCCOc1ccccc1C(=O)Nc1ccc2c(c1)NC(=O)CO2
    -0.57	i
- CC(C)(c1nnnn1-c1ccccc1)N1CCCCC1
    -1.68	i
- O=C(NCc1ccc2c(c1)OCO2)c1c(-c2ccccc2)nnc2ccccc12
    -1.85	i
- C[C@](N)(Cc1ccc(O)c(O)c1)C(=O)O
    0.46&0.6&-0.22&0.48	i

The results go on.
Value order: Anaer choline gr early	Anaer choline gr
- COc1cc(OC)cc(C(=O)NCC(c2ccc(N(C)C)cc2)N(C)C)c1 (stereo unspecified)
    -0.31	i
- O=C(NCc1cccnc1)c1cccc(CN2C(=O)C3CCCN3C(=O)c3ccccc32)c1 (stereo unspecified)
    0.18	i
- O=C(CCn1cnc2cc(S(=O)(=O)N3CCCC3)ccc21)N1CCc2ccccc2C1
    -0.01	i
- Cc1ccc(-c2nc(CS(=O)CC(=O)N3CCC(N4CCCCC4)CC3)c(C)o2)cc1 (stereo unspecified)
    -0.18	i
- Cc1ccc(/C=C/c2nc(-c3ccc4oc(C)nc4c3)no2)o1
    0.9	i
- Cc1ccc(C)c(N2CCN(S(=O)(=O)c3ccc4c(c3)C(C)(C)C(=O)N4C)CC2)c1
    -0.39	i
- NS(=O)(=O)c1ccc(NC(=O)Nc2ccc(F)cc2)cc1
    -0.32	i
- COc1ccc(C2CC(=O)C3=C(C2)Nc2onc(C)c2C3c2ccc(Br)cc2)cc1OC (stereo unspecified)
    -0.13	i
- Cc1c(S(=O)(=O)Nc2ccc(Cl)cn2)cc(-c2nc(-c3ccccc3)cs2)n1C
    -0.06	i
- COc1ccc(-c2nc3ccccc3s2)cc1NC(=O)c1ccccc1Cl
    -0.13	i
- CCCS(=O)(=O)Nc1ccccc1CCc1nc2ccccc2n1CC
    0.52	i
- CCCC(=O)Nc1ccc(OCC(O)CNC(C)C)c(C(C)=O)c1 (stereo unspecified)
    0.33&0.39	i
- CC(C)Cc1nnc(-c2ccc3c(c2)OCO3)o1
    -0.38	i
- O=C(Cn1cnc(S(=O)(=O)N2CCCCC2)c1)Nc1cccnc1
    -0.36	i
- COCCCNC(=O)C1CCN(S(=O)(=O)N(CC(C)C)CC(C)C)CC1
    -0.21	i

Complete entries, looked up by structure. Screens in order: Anaer choline gr early | Anaer choline gr
Profile of NS(=O)(=O)c1ccc(NC(=O)Nc2ccc(F)cc2)cc1 = -0.32 | i
Profile of Cc1ccc(C)c(N2CCN(S(=O)(=O)c3ccc4c(c3)C(C)(C)C(=O)N4C)CC2)c1 = -0.39 | i
Profile of Cc1ccc(-c2nc(CS(=O)CC(=O)N3CCC(N4CCCCC4)CC3)c(C)o2)cc1 (stereo unspecified) = -0.18 | i
Profile of Cc1c(S(=O)(=O)Nc2ccc(Cl)cn2)cc(-c2nc(-c3ccccc3)cs2)n1C = -0.06 | i

Additional records
Value order: Anaer choline gr early	Anaer choline gr
- CC(C)C(=O)Nc1ccc(S(=O)(=O)Nc2ccc3c(c2)C(=O)N(C)c2ccccc2O3)cc1
    1.04	i
- CC1CCCN(S(=O)(=O)c2ccc(-c3nc(C#N)c(NC4CCCCC4)o3)cc2)C1 (stereo unspecified)
    0.2	i
- CCC(C)NC(=O)NC(c1ccccc1)c1nnc(-c2ccc(Cl)cc2)o1 (stereo unspecified)
    -1.07	i
- O=C(Nc1ccc(Cl)cc1)c1ccc(-n2nnc3cccnc32)cc1
    1.81	i
- O=C(c1cncc(NS(=O)(=O)c2ccc(F)cc2)c1)N1CCc2ccccc21
    0.1	i
- COc1cccc(C2CC(=O)Nc3c2c(C)nn3-c2ccc3nnc(C)n3n2)c1OC1CCCC1 (stereo unspecified)
    -0.06	i
- O=c1c2ccccc2n2c(=O)n(Cc3ccccc3)nc2n1CCc1ccccc1
    0.05	i
- O=S(=O)(Nc1ccc(Cn2cnc(-c3nc(-c4ccc(F)cc4)no3)c2)cc1)c1ccc(F)c(Cl)c1
    0.61	i
- CC(NC(=O)c1ccc(NC(=O)N2CCCCc3ccccc32)cc1)c1ccc2c(c1)OCCO2 (stereo unspecified)
    -0.34	i
- Cn1c(=O)c(-c2noc(C(=O)NC3CCCCC3)n2)nn(-c2ccc(F)cc2)c1=O
    -0.14	i
- COC(=O)c1cc(S(=O)(=O)N2CCCC2C(=O)Nc2c(Cl)cc(OC)cc2OC)cn1C (stereo unspecified)
    -1.37	i
- COc1ccc(NC(=O)CN2C(=O)C(C)(C)c3cc(S(=O)(=O)N4CCCC4)ccc32)c(OC)c1
    -0.48	i
- CCOC(=O)c1c(C)[nH]c(C)c1S(=O)(=O)N1CCC(C(=O)N2CCN(c3ccccc3)CC2)CC1
    -1.41	i
- O=C(NCc1ccc(Br)cc1)C1CCN(c2ccc(-c3ccc(F)cc3)nn2)CC1
    2.2	i
- CCOC(=O)Cn1c(=O)n(-c2ccccc2)c(=O)c2cc3c(nc21)CC(C)(C)OC3
    0.84	i
- Cc1ccc(S(=O)(=O)N2CSC[C@@H]2C(=O)NCCc2csc(C)n2)cc1
    -0.12	i
- CCOC(=O)C1CCN(C(=O)Cn2cnc3ccc(S(=O)(=O)N4CCC(C)CC4)cc3c2=O)CC1
    -0.86	i
- O=S(=O)(c1cccc2c(Cl)cccc12)N1CCCNCC1
    -0.6&-0.34&-0.11	i
- O=C(c1ccc(Cl)cc1)N1CC(OCc2ccc(F)cc2)C1
    1.43	i
- Cc1cc(C)cc(Nc2ncnc3c2cnn3C)c1
    0.39	i
- Cc1onc(-c2ccccc2Cl)c1C(=O)Nc1cc2c(cc1N(C)C)n(C)c(=O)c(=O)n2C
    1.13	i
- O=C(NCCc1nc(-c2ccccc2)no1)c1cc(-c2ccc3c(c2)CCCC3)on1
    0.65	i
- O=c1c(N2CCCC2)csc2ccc(F)cc12
    -2.42	i
- COc1ccc(CCC(=O)Nc2ccc3nc(NC(=O)c4ccccc4)sc3c2)cc1
    0.79	i
- O=C(Nc1cccnc1)c1noc2c1CCc1sccc1-2
    2	i
- CC(C)N(CCCNC(=O)C1CCN(c2nc3cccnc3s2)CC1)Cc1ccccc1
    1.23	i
- Cc1cccn2c(=O)c(C(=O)NC3CCCCC3)cnc12
    -0.33	i
- CCNS(=O)(=O)c1ccc2c(c1)N(Cc1noc(C)n1)C(=O)CO2
    0.15	i
- CCSc1nnc(-c2nn(C)c3c2CN(S(=O)(=O)c2ccc(C)cc2)CC3)n1CC
    -1.04	i
- FC(F)(F)c1nc2ccccc2nc1N1CCC2(CC1)OCCO2
    0.26	i
- CCOC(=O)CCc1c(C)nc2nc(CNc3ccccc3Cl)[nH]n2c1=O
    0.13	i
- O=C1Nc2cc(C(=O)N3CCC(N4CCCCC4)CC3)ccc2N2CCCCC12 (stereo unspecified)
    0.63	i
- CCCN(CCC)C(=O)Cn1c(=O)n(-c2ccccc2)c(=O)c2c1c1cc(OC)ccc1n2C
    0.38	i
- CC(C)NC(=O)c1ccc(-c2nc(CCN(C)C(=O)Nc3ccccc3)no2)cc1
    -1.07	i
- CO[C@@]12[C@H](COC(N)=O)C3=C(C(=O)C(C)=C(N)C3=O)N1C[C@@H]1N[C@@H]12
    -3.48*!	+!

Shown as tab-separated lines: entries from further up
Molecule	Anaer choline gr early	Anaer choline gr
O=C1Nc2cc(C(=O)N3CCC(N4CCCCC4)CC3)ccc2N2CCCCC12 (stereo unspecified)	0.63	i
CO[C@@]12[C@H](COC(N)=O)C3=C(C(=O)C(C)=C(N)C3=O)N1C[C@@H]1N[C@@H]12	-3.48*!	+!
CC(C)NC(=O)c1ccc(-c2nc(CCN(C)C(=O)Nc3ccccc3)no2)cc1	-1.07	i
CCOC(=O)CCc1c(C)nc2nc(CNc3ccccc3Cl)[nH]n2c1=O	0.13	i
